# Source: PubChem
# Mtb H37Rv = M. tuberculosis H37Rv growth inhibitors, H37Rv strain (AID 1626) | 0.95% of 220,000 active | M. tuberculosis H37Rv growth inhibition; higher % means a stronger effect | inhibition, % at 10 µM, or IC50 in µM where a hit was titrated;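 active = confirmed in a dose series; inconclusive = inhibition above 80% but not taken into the dose series; inactive = below 80% or under 30% at every dose of the series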;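 note: bacteria incubated seven days before Alamar blue readout; 0% = bacteria only wells and 100% = bacteria with antibiotic wells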
# RecA splice inh = blocks M. tuberculosis RecA intein splicing | P9WHJ3 | cell-free RecA intein splicing, fluorescence | inhibition, %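 (about 9 µM by stock and volumes)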 | 0.75% of 290,000 active; in the data active = inhibition above about 30%; inconclusive = no clear call, values can overlap the other calls;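 note: 0% = vehicle wells and 100% = reference inhibitor control wells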
# Target sequence (P9WHJ3 whole entry, looked up, canonical isoform): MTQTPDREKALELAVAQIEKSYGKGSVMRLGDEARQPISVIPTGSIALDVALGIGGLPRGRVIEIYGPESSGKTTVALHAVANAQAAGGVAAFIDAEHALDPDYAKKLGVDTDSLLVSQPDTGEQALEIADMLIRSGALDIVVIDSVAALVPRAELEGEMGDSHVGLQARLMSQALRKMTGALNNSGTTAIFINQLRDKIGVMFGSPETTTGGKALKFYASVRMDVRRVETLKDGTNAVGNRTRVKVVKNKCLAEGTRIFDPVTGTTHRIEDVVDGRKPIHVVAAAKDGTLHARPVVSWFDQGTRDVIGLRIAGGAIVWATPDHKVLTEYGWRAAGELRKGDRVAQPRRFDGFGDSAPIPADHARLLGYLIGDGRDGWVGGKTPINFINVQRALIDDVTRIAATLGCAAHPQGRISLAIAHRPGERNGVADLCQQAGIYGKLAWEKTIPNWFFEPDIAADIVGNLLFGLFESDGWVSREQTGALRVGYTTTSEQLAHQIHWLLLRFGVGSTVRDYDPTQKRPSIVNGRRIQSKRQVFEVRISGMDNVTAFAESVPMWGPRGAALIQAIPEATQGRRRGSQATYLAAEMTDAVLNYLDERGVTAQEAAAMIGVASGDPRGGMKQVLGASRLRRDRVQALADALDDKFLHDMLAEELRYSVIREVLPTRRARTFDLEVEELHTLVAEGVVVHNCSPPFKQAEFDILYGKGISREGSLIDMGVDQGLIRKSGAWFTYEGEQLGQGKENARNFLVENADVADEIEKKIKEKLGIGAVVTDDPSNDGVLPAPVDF
# YopH PTP inh = YopH (Yersinia) phosphatase inhibition. 0.16% of 140,000 active. AID 898. inhibition, %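 (about 10 µM by stock and volumes)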. fluorescence Ex485/Em525;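 active = inhibition of 50% or more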;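 note: controls were vehicle for no effect and minimum signal wells for full effect; inactives centre near -20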
# Arbovirus inh = arbovirus infection inhibition; 0.37% of 200,000 active; arbovirus infection cell-based antiviral screen; inhibition, % at 10 µM;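 active = inhibition from about 30%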;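 note: bluetongue infection of BSR cells; cell survival read as ATP light after 72 h; 0% = infected wells without compound and 100% = uninfected wells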
# Mtb betalactam = beta-lactam sensitization of Mtb H37Rv. AID 434955. 0.27% of 330,000 active. inhibition, % at 25 µM. M. tuberculosis H37Rv growth with meropenem, percent inhibition; hits of this screen are not shown here;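 active = about 74% or more and at least 40 points above the plate without the antibiotic, then above 30% in a dose series; inconclusive = first-round hits that could not be retested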;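 note: growth measured after seven days incubation then overnight dye step; 0% = bacteria only wells and 100% = bacteria with antibiotic; twin plates without the antibiotic show which effects depend on it; some results filed as inactive read as strong as hits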
# The depositor's hits bear a star; ? = inconclusive; / = not tested or not shown. An excerpt; rates above refer to the full screens.
SMILES,Mtb H37Rv,RecA splice inh,YopH PTP inh,Arbovirus inh,Mtb betalactam
Cc1c(Cc2ccccc2)c(=O)oc2cc(OC(C)C(=O)NCC3CCC(C(=O)O)CC3)c(Cl)cc12 (centres undefined),/,-1.3,/,/,4
C=CCN(C)CC/C=C1\c2ccccc2CSc2ccccc21,2%,-0.8,-19,-7,-5
CN(CCCNC(=O)CCC(=O)N1CCOc2ccc(Cl)cc21)Cc1ccccc1,/,-0.8,/,/,1
O=C1C(Cc2c[nH]c3ccccc23)NC(=S)N1Cc1ccccc1 (centres undefined),-4%,2.4,/,10,-6
CCn1cnc2cc(NC(=O)c3cccs3)ccc21,-11%,-1.0,/,0,1
COc1ccc(-n2nc([N+](=O)[O-])c(=NCCc3ccc(OC)c(OC)c3)n2O)cc1,7%,1.4,-51,-14,1
O=C(NCc1cccnc1)/C(=C\c1ccc(-c2cccc(Cl)c2)o1)S(=O)(=O)c1ccccc1,?,54*,-30,-41,7
CCOC(=O)CN1C(=O)CSc2ccccc21,3%,/,-24,-2,0
COc1ccc(N2CCN(C(=O)CNC(=O)c3ccc(C(C)(C)C)cc3)CC2)cc1,1%,-1.9,-14,4,62
S=c1[nH]nc(-c2cccc(Br)c2)o1,0%,0.1,-19,14,-6
Cc1cc(OC(C)C(=O)NC(Cc2c[nH]c3ccc(O)cc23)C(=O)O)c2c(C)cc(=O)oc2c1 (centres undefined),/,2.3,/,/,0
CCOc1ccc(CN(C)C(C)C(=O)Nc2ccc([N+](=O)[O-])cc2Cl)cc1OC (centres undefined),4%,-2.8,-8,-2,5
Cc1ccc(NS(=O)(=O)c2cc(C(=O)N3CCN(C)CC3)ccc2C)cc1,-10%,/,-12,1,-10
CCOc1c(N2CCCCC2)c(=O)c1=O,-10%,-4.3,-34,4,-7
Cc1ccc(NC(=S)NNC(=O)Nc2ccccc2)cc1,-3%,-0.5,/,18,-6
O=C(c1cccs1)N1CCN(c2ccc([N+](=O)[O-])cc2F)CC1,/,0.3,/,/,1
Nc1nnc(SCC(=O)N2CCN(Cc3ccccc3)CC2)s1,-5%,/,9,3,-15
CN(C)C(CNC(=O)c1cccc(OC(F)F)c1)c1ccco1 (centres undefined),-8%,0.2,-30,6,4
CCCc1cc(=O)oc2c(C)c(OS(C)(=O)=O)ccc12,-3%,-3.5,4,/,-6
Cc1ccc(CCNC(=O)C2CCN(S(=O)(=O)N3CCC4(CC3)OCCO4)CC2)cc1,-1%,/,-19,4,-1

# Part of the list above, with two lines to a compound:
# Each structure is followed by: Mtb H37Rv	RecA splice inh	YopH PTP inh	Arbovirus inh	Mtb betalactam
O=C1C(Cc2c[nH]c3ccccc23)NC(=S)N1Cc1ccccc1 (centres undefined)
→ -4%	2.4	/	10	-6
CCn1cnc2cc(NC(=O)c3cccs3)ccc21
→ -11%	-1.0	/	0	1
COc1ccc(-n2nc([N+](=O)[O-])c(=NCCc3ccc(OC)c(OC)c3)n2O)cc1
→ 7%	1.4	-51	-14	1
O=C(NCc1cccnc1)/C(=C\c1ccc(-c2cccc(Cl)c2)o1)S(=O)(=O)c1ccccc1
→ ?	54*	-30	-41	7
CCOC(=O)CN1C(=O)CSc2ccccc21
→ 3%	/	-24	-2	0
COc1ccc(N2CCN(C(=O)CNC(=O)c3ccc(C(C)(C)C)cc3)CC2)cc1
→ 1%	-1.9	-14	4	62
S=c1[nH]nc(-c2cccc(Br)c2)o1
→ 0%	0.1	-19	14	-6
Cc1cc(OC(C)C(=O)NC(Cc2c[nH]c3ccc(O)cc23)C(=O)O)c2c(C)cc(=O)oc2c1 (centres undefined)
→ /	2.3	/	/	0
CCOc1ccc(CN(C)C(C)C(=O)Nc2ccc([N+](=O)[O-])cc2Cl)cc1OC (centres undefined)
→ 4%	-2.8	-8	-2	5
Cc1ccc(NS(=O)(=O)c2cc(C(=O)N3CCN(C)CC3)ccc2C)cc1
→ -10%	/	-12	1	-10
CCOc1c(N2CCCCC2)c(=O)c1=O
→ -10%	-4.3	-34	4	-7
Cc1ccc(NC(=S)NNC(=O)Nc2ccccc2)cc1
→ -3%	-0.5	/	18	-6
O=C(c1cccs1)N1CCN(c2ccc([N+](=O)[O-])cc2F)CC1
→ /	0.3	/	/	1
Nc1nnc(SCC(=O)N2CCN(Cc3ccccc3)CC2)s1
→ -5%	/	9	3	-15
CN(C)C(CNC(=O)c1cccc(OC(F)F)c1)c1ccco1 (centres undefined)
→ -8%	0.2	-30	6	4
CCCc1cc(=O)oc2c(C)c(OS(C)(=O)=O)ccc12
→ -3%	-3.5	4	/	-6
Cc1ccc(CCNC(=O)C2CCN(S(=O)(=O)N3CCC4(CC3)OCCO4)CC2)cc1
→ -1%	/	-19	4	-1

# Later entries:
SMILES,Mtb H37Rv,RecA splice inh,YopH PTP inh,Arbovirus inh,Mtb betalactam
Cc1ccc(NC(=O)Cn2cccc2C2=NC(c3ccccc3)CO2)cc1C (centres undefined),10%,-0.7,-18,-5,7
O=C(COc1ccc(S(=O)(=O)N2CCCCC2)cc1Cl)N1CCCC1,/,0.6,/,/,-3
CCN(CC)C(=O)Cn1cc(C(=O)C(=O)NCCCN2CCCCC2)c2ccccc21,/,3.3,/,/,-16
COc1ccc(S(=O)(=O)N(C(C)=O)c2ccc(OC(C)=O)c3ccccc23)cc1[N+](=O)[O-],-7%,4.5,-20,-38,1
O=C1Nc2ccccc2C1c1ncc(C(F)(F)F)cc1Cl (centres undefined),/,0.6,/,/,8
CCOC(=O)c1c(S(=O)(=O)NCC(=O)Nc2ccc(F)cc2F)c(C)n(C)c1C,/,0.7,/,/,0
Cc1ccc2nc(SCC(=O)Nc3cc(C(F)(F)F)ccc3N3CCOCC3)[nH]c2c1,-3%,2.4,-9,-13,-2
O=C(Cn1nnc(-c2ccccc2-n2cnnn2)n1)NCc1ccccc1,-2%,-0.8,-19,-6,-5
CCCc1cc(=O)oc2c(C)c(OC(C)C(=O)NCc3ccccn3)ccc12 (centres undefined),/,-0.9,/,/,52
COCCNC(=O)c1snc2ccc(Cl)cc12,0%,0.6,-13,14,-9
Cc1cc2oc(=O)cc(CN3CCC(C)CC3)c2cc1Cl,-2%,4.1,-40,4,29
Cc1cc(Cl)ccc1OCCCC(=O)N1CCN(C(=O)c2ccco2)CC1,-7%,5.2,-38,4,1
CCCCn1c(N)c(N(CC(C)C)C(=O)c2cc(-c3ccco3)nc3ccccc23)c(=O)[nH]c1=O,/,-0.7,/,/,-7
Cc1cc(C(=O)OCC(=O)c2ccccc2)c2ccccc2n1,/,-1.1,/,/,-3
O=C1NC(=O)N(CCc2ccc(F)cc2)C(=O)/C1=C/c1cccs1,3%,2.7,/,-2,-7
COc1ccc2cc(CN(CC3CCCO3)C(=O)Nc3ccccc3OC)c(=O)[nH]c2c1 (centres undefined),2%,-2.3,/,-15,22
CC(=O)N1CN2CN(C(C)=O)CC(C(=O)c3ccccc3)(C2)C1,-2%,4.4,-2,6,1
CC(C)(C)c1ccc(C(CC(=O)O)NC(=O)Cc2ccccc2)cc1 (centres undefined),/,-0.9,/,/,1
COc1ccc(-c2noc(CCC(=O)NCC3CCN(Cc4cccc(C)c4)CC3)n2)cc1,6%,2.1,-8,-12,-12
CC(=O)c1cccc(NS(=O)(=O)c2ccc(NC(=O)N3CCCCC3)cc2)c1,/,-3.8,/,/,-5
Cc1ccc2c(CN3C(=O)NC(C)(c4ccc5c(c4)OCO5)C3=O)cc(=O)oc2c1 (centres undefined),4%,1.5,-35,3,-10
CCOC(=O)N1CCN(C(=O)C(C)N(c2ccccc2)S(C)(=O)=O)CC1 (centres undefined),3%,20,/,5,-2
Cc1cc(N2CCOCC2)ccc1/C=C\[N+](=O)[O-],0%,0.0,-15,-36,66
Cc1nc(CN(C)Cc2nc(Cc3cccc(F)c3)no2)cs1,12%,3.3,/,-3,6
O=C1/C(=C/c2ccccn2)SC(=S)N1c1ccc(O)cc1,6%,/,/,/,3
Cc1ccc2c(c1)CC1(CN2C)C(=O)NC(=O)N(CCc2ccccc2)C1=O (centres undefined),-7%,-3.1,-21,7,-8
O=CNc1ccc(OC(=O)c2cncc(Br)c2)cc1,/,0.4,/,/,0
COc1ccc(CNS(=O)(=O)c2ccc3c(c2)C(C)(C)C(=O)N3C)cc1,/,0.1,/,/,?
Cc1ccc(-c2c(C#N)c(N)nc3c2CCCCC3)cc1,15%,-1.9,-21,4,-12
COc1cccc(NC(=S)N2CCN(C/C=C/c3ccccc3)CC2)c1,-4%,4.9,-20,18,18
Cc1ccc2c(c1)c(/C=C/c1cc[n+](C)cc1)c(C)n2C,/,-6.6,/,/,99
O=C(CCN1C(=O)C2C3C=CC(C3)C2C1=O)NCCN1CCCc2ccccc21 (centres undefined),-9%,-8.3,-47,-1,2
C/C(=N\NC(=O)c1ccc(Cl)cc1)c1ccc(N2CCOCC2)cc1,-3%,-3.7,-35,-1,3
CC(C)c1ccc(NC(=O)[C@@H](NC(=O)N2CC(=O)Nc3ccccc32)C(C)C)cc1,/,3.5,/,/,5
O=C(CCNC(=O)Cn1ccc2ccccc2c1=O)NCCCN1CCOCC1,-8%,-1.0,/,0,-10
Cc1ccc(S(=O)(=O)N(C)C)cc1NC(=S)N1CCN(Cc2ccc3c(c2)OCO3)CC1,-2%,-1.1,/,4,-3
Nc1ncnc(Nc2ccccc2C(F)(F)F)n1,1%,/,29,-4,-2
CCOC(=O)Cc1csc(NC(=O)CN2CCN(c3ccccc3)CC2)n1,/,-0.9,/,/,4
Cc1cc(CN(C)C(=O)c2ccc(OC3CCN(CCc4ccccc4)CC3)cc2)on1,/,-2.2,/,/,3
CCOC(=O)N1CCN(C(=S)Nc2cc(OC)c(OC)cc2C(=O)OC)CC1,-5%,-2.5,-33,2,4
CC12CC(c3ccccc3O1)C(C(=O)NCc1ccccc1)C(=O)N2 (centres undefined),1%,-0.5,-28,3,3
Cc1ccccc1OCc1nnc(SCc2cc(=O)[nH]c3ccccc23)o1,2%,0.4,0,-5,1
CC(=O)c1c(C)n(C)c2ccc(OC(=O)c3ccc([N+](=O)[O-])cc3)cc12,0%,-0.1,/,4,96
N#Cc1ccc(OCc2nnc(SCC(=O)N3CCCc4ccccc43)n2-c2ccccc2)cc1,-7%,6.7,-29,7,1
COc1ccc(C2(C(=O)Nc3cc(C)on3)CCOCC2)cc1,-4%,-0.6,-14,5,-4
O=C(Nc1ccc(S(=O)(=O)NCc2ccco2)cc1)c1ccc2ccccc2n1,/,1.2,4,-1,22
O=C(O)CCC(=O)N1N=C(c2ccc(Br)cc2)CC1c1ccc(Br)cc1 (centres undefined),/,6.7,/,/,6
O=C(CSc1nnc(Cc2cccs2)n1-c1ccccc1)NCc1ccc2c(c1)OCO2,-6%,2.1,-18,-1,-7
COc1cc2c(cc1O)[C@H](Cc1ccc(Oc3cc(C[C@@H]4NCCc5cc(OC)c(O)cc54)ccc3O)cc1)NCC2,0%,-17,-22,-20,50
Cc1ccc(CCNC(=O)C2CCN(S(=O)(=O)c3ccc4nc5c(c(C(=O)O)c4c3)CCCC5)CC2)cc1,/,1.2,/,/,-1
CCOc1ccc2oc(C(=O)OCC(=O)NC3CC3)c(C)c2c1,1%,0.3,/,14,-7
O=C(CSc1nc2ccccc2o1)Nc1ccc(N2CCOCC2)c(Cl)c1,3%,-0.4,-22,-5,2
O=[N+]([O-])c1ccc(N2CCN(c3ccccc3Cl)CC2)cn1,/,1.9,/,/,4
COC(=O)CC1(c2cccc3ccccc23)C(=O)c2ccccc2C1=O,-4%,42*,3,0,4
CCOc1ccc(S(=O)(=O)N2CCN(Cc3ccc4c(c3)OCO4)CC2)cc1Cl,/,11,/,/,-3
CNS(=O)(=O)c1cn(CC(=O)N(C)Cc2ccccc2)cc1S(=O)(=O)NC,/,-3.1,/,/,3
COc1ccc(OC)c(NC(=O)CSc2n[nH]c(-c3cccnc3)n2)c1,/,0.3,/,/,-9
CCNC(=S)NNC(=O)CSc1nc2ccccc2n1C,0%,-0.8,/,/,9
COn1c(-c2ccccc2)nc2ccc(Cl)cc21,10%,-0.7,-32,13,12
COC(=O)CSc1ccc2nnc(CCNS(=O)(=O)c3ccccc3)n2n1,-1%,-1.8,/,2,2
# Following part.
SMILES,Mtb H37Rv,RecA splice inh,YopH PTP inh,Arbovirus inh,Mtb betalactam
N#C/C(=C/c1ccc(-c2ccc(Br)cc2)o1)C(=O)NC1CCCCC1,>100µM*,1.1,-15,6,30
Cc1cccn2c(=O)c(C=O)c(NCc3ccccc3)nc12,4%,-1.2,/,/,-7
Cc1ccn(C(=O)c2ccc(NC(=O)CC(C)C)cc2)n1,11%,/,/,4,24
COc1cc(C(Nc2ccc(S(=O)(=O)N3CCC(C)CC3)cc2)C(=O)NCC2CCCO2)cc(OC)c1OC (centres undefined),-1%,-1.8,10,-1,-4
CCOc1cc2[nH]c(=S)n(CCCC(=O)NCc3ccccn3)c(=O)c2cc1OCC,/,0.4,/,/,-3
COc1ccc(NS(=O)(=O)c2cccc(C(=O)NCc3ccccn3)c2)cc1,/,-1.4,/,/,-3
